# Mtb hypoxia rep: Mtb hypoxia fluorescent reporter inhibition; 0.1% of 300,000 active; fluorescence inhibition, % (test concentration not listed); AID 1159583; M. tuberculosis hypoxia-regulated fluorescent reporter, fluorescence;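 active = 35 to 45% if threefold the growth effect, above 45% if 1.5-fold the growth effect; inactive = the rest, general growth blockers included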;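 also: wells of about 50 µL received 100 nL stock; 0% = vehicle wells and 100% = reference inhibitor wells; whole bacteria with a GFP reporter of the hypoxia response; strong numbers were not always called active; many hits fall short of the cut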
# Sa RN4220 lethal: S. aureus RN4220 growth inhibition | inhibition, % (no concentration beside the values) | 0.33% of 330,000 active | OD600, 16 h | AID 1259311;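 active = z-score of -3 or lower and OD600 up to 0.18 on both plates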;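 also: plate controls were untreated cells for no effect and reference antibiotic for full effect; stock transfer was 100 nL into about 80 µL; one replicate is shown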
# ugtP null kill: compounds lethal to S. aureus RN4220 ugtP deletion mutant; AID 1259309; 0.54% of 330,000 active; OD600 growth, 16 h; some inactives read as strong as hits; growth inhibition, % (concentration not given with the values);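 active = z-score under -3 and OD600 up to 0.15 on both plates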;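 also: plate controls were untreated wells for no effect and antibiotic for full effect; wells of about 80 µL received 100 nL stock; the first replicate is given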
# PrP 5UTR inh: inhibition of PrP 5' UTR reporter expression; cell-based PrP 5' UTR mRNA reporter, plate reader; inhibition, % (concentration not given with the values); 0.35% of 340,000 active; AID 488862;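 active = every replicate at 50% or more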;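 also: 0 = median of the neutral control wells; tested in H4 reporter cells; numbers are from one replicate; inactives centre near -14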
# Bead autofluor: flagged as autofluorescent in microsphere protease counterscreen; AID 624483; 3.1% of 360,000 active; fluorescence intensity (no concentration beside the values); compound autofluorescence counterscreen, microsphere flow cytometry; stronger effect = higher value;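 active = at least 3 SD above the mean of all compounds, about 16000 in these data; inconclusive = too few beads counted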;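 also: 100 nL of 1 mM stock went into each well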
# BJeLR viability: BJeLR cell viability loss. inhibition, % (test concentration not listed). BJeLR (HRASV12) viability, CellTiter-Glo ATP luminescence, 48 h; reference of the scale not given here. 0.17% of 300,000 active;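 active = replicate mean above 50%; inconclusive = above 50% but judged a plate artefact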;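 also: 50 nL library stock added to about 25 µL; numbers are from one replicate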
# Mtb hypoxia rep growth: further read-out of Mtb hypoxia rep, marked with its call; growth inhibition, %; measured here: M. tuberculosis growth (absorbance);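 0% = vehicle and 100% = reference antibiotic; read after six days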
# Active calls of the source: *; ? = inconclusive; / = not tested or not shown.
SMILES,Mtb hypoxia rep,Mtb hypoxia rep growth,Sa RN4220 lethal,ugtP null kill,PrP 5UTR inh,Bead autofluor,BJeLR viability
CC(=O)N/C(=N/c1nc(C)cc(C)n1)Nc1ccc2ccccc2c1,-2,7,1.8,11,/,/,/
CC1CN(C(C)CO)C(=O)c2cccc(NC(=O)Nc3ccc4c(c3)OCO4)c2OC1CN(C)C(=O)Nc1ccccc1 (stereo unspecified),12,4,3.7,1,/,/,/
COC(=O)N(NC(=O)C(O)(CCC(C)C)CCC(C)C)c1ccccc1,7,3,4.6,-2,-17,2571,-15
COc1cccc(CN2CC(C(=O)N(C)Cc3nc4ccc(F)cc4[nH]3)CCC2=O)c1 (stereo unspecified),/,/,/,/,-20,5326,0
Cc1[nH]c2ccccc2c1C=NNC(=O)c1cccs1,17,11,21,5,/,/,/
COC(=O)c1sc2ncccc2c1OCc1c(Cl)cccc1Cl,13,5,6.6,-8,-17,19174*,9
CCN(CC)C(=O)[C@H]1C[C@H](CC(=O)NCc2ccc(OC)c(OC)c2)C(=O)N2CCc3c([nH]c4ccc(Cl)cc34)[C@]12C,1,-3,6.7,-6,-10,4266,/
Cc1ccc(S(=O)(=O)Nc2cccc(C(=O)NCc3cccnc3)c2)cc1F,1,16,1.1,1,-11,5561,20
Cc1cccc(N2C(=O)NC(=O)/C(=C\c3cnn(-c4ccccc4)c3)C2=O)c1,/,/,2.5,0,-28,2717,5
O=C(c1ccncc1)c1ccc(NC(=O)c2cccs2)cc1,3,-1,2.1,0,-39,4285,16
O=C(c1cccs1)N1CCc2c([nH]c3ccccc23)C1c1ccc(Cl)cc1 (stereo unspecified),/,/,-9.0,-1,-21,2787,7
COc1ccc(-n2nc(C(=O)NCC(=O)NCc3ccco3)c3ccccc3c2=O)cc1,14,7,7.8,4,-30,5918,5
CCOC(=O)c1c(N)sc(C(N)=O)c1C,6,0,4.7,8,7,6537,-7
COCC(=O)Nc1cc(Cl)c(OC)cc1OC,-7,1,1.1,3,1,2138,-5
CN(C)CC(O)CN1C(=O)NC(C)(C)C1=O (stereo unspecified),-4,0,5.2,0,-9,2551,0
COc1ccc(N2CCN(CC(O)COCc3ccccc3)CC2)cc1 (stereo unspecified),15,5,9.3,4,33,4440,-13
COc1ccccc1C(=O)COC(=O)Cc1ccccc1F,11,1,1.8,5,-10,3830,/
COC(=O)COc1ccc(-c2ccccc2)cc1C=O,6,-1,7.1,13,-25,4060,-4
CCn1c(CNc2ccc(OC)cc2)nnc1SCC(=O)N1CCCc2ccccc21,2,8,1.3,-5,-29,8744,7
COC1C(C)=C(C)C(=O)N1Cc1ccc(F)cc1 (stereo unspecified),-12,5,0.3,3,-4,4320,-8
Cc1cccc(C(=O)OCC(=O)NC(C)CCc2ccccc2)c1O (stereo unspecified),1,-3,-3.9,15,-12,3522,-1
O=C(c1cccc(S(=O)(=O)N2CCCC2)c1)N1CCOCC1,14,8,2.9,3,/,/,/
Cn1c(C(N)=O)cnc1Sc1ncc(C(F)(F)F)cc1Cl,9,10,2.9,5,-13,3024,2
CC(C)C[C@@H](CO)N1CCN(C)CCC1=O,8,14,-16,-5,-11,4053,-2
Cc1nnc(-c2cnn(-c3ccccc3)c2N)n1Cc1ccccc1,6,6,5.4,2,-15,20987*,-9
Cc1nc2c(cnn2-c2ccccc2)c(=O)n1/N=C/c1ccccc1,/,/,/,/,-43,5139,-4
O=C(COC(=O)/C=C/c1ccco1)NCc1ccc(Cl)cc1,17,7,1.1,2,-30,3923,/
CC(=O)Nc1cccc(C(=O)N/N=C/c2ccccc2F)c1,/,/,/,/,-71,1965,-6
CCOC(=O)c1cc2c(N)c(C(=O)c3cc(C#N)c(SC)nc3C)sc2nc1C,-1,-4,-3.1,-9,-27,6833,1
CCn1c(C)cc2c(c1=O)C(c1ccccc1Br)C(C#N)=C(N)O2 (stereo unspecified),8,13,5.5,1,-18,9767,-3
COc1ccc(C2C(C(=O)N3CCN(c4ccccc4F)CC3)c3ccccc3C(=O)N2C)cc1 (stereo unspecified),11,16,4.4,-3,-23,9192,-5
CCN(Cc1ccncc1)C(=S)Nc1ccc(Cl)cc1,13,19,5.2,6,5,4295,3
COc1ccc([N+](=O)[O-])cc1NC(=O)C(C)NNC(=O)c1cccc([N+](=O)[O-])c1 (stereo unspecified),8,8,-9.5,1,-13,6689,/
COc1ncnc(NS(=O)(=O)c2ccc(N)cc2)c1OC,3,13,8.1,15,-6,5551,/
CC[C@@]12C(=O)N(c3ccccc3)C(=O)N1C(c1cccc(C)c1)C1C(=O)N(Cc3ccccc3)C(=O)C12 (stereo partly specified),-3,9,6.9,4,/,/,/
Nc1nc(N)c(N=Nc2ccc(SCC(=O)O)cc2)c(=O)[nH]1,8,6,-0.7,3,-3,4272,-6
CC(C)n1c(SCCCc2ccccc2)nc2c1c(=O)[nH]c(=O)n2C,6,11,-4.6,8,-12,5405,-1
COc1ccc(C(=O)N2CCN(C)C(=O)[C@@H]2C)cc1OC1CCN(C(C)C)CC1,12,5,2.0,16,-25,6309,-7
COc1ccc(-c2nnc(SCc3nnc(-c4ccc(Cl)cc4)o3)n2-c2ccccc2)cc1,6,4,2.6,-3,-26,3405,4
COc1ccc(CCNc2ncnc3sc(C)cc23)cc1OC,/,/,/,/,-15,4202,20
Cc1ccc(NC(=O)Cn2c(/C=C/c3ccccc3)nc3ccccc32)cc1C,-3,6,-6.4,-15,-6,/,-7
O=C(O)/C(=C\c1ccc(Cl)cc1)c1ccc(S(=O)(=O)N2CCCC2)s1,1,2,0.4,-10,-7,6165,/
O=S(=O)(N=C(Sc1ccccc1)c1ccccc1)c1ccc(Cl)cc1,-2,7,-0.6,19,/,/,/
Cc1nnc(SCC(=O)N2CCC(c3noc4ccc(F)cc34)CC2)s1,7,12,4.8,7,10,10796,2
NC(=O)CSc1nnnn1-c1ccc2c(c1)OCCO2,14,5,-8.0,2,-23,2410,2
CC1(C)CC2(CCO1)C(Nc1ccccc1)=NC(=S)N2c1ccccc1 (stereo unspecified),2,1,1.9,7,/,/,-4
Cc1nn(CC(=O)Nc2ccc(F)cc2)c(=O)c2ccccc12,18,3,5.0,9,-23,3210,5
COC(=O)C1=C(C(=O)OC)[C@@H]2Nc3ccccc3[C@@]23C[C@@H](C(=O)OC)N(C(=O)c2cc(C)oc2C)C3=N1,/,/,/,/,-9,3136,-1
CCN(CC(=O)Nc1ccccc1OC)C(=O)CN1C(=O)NC2(CCCC2)C1=O,3,17,1.9,9,-20,5740,-10
Cc1ccc(S(=O)(=O)NCCCOC(=O)Nc2ccncc2)cc1,8,1,1.0,1,-16,3387,0
Cc1nc([N+](=O)[O-])c(C(=O)OCc2ccccc2C#N)n1C,5,-3,4.2,4,-6,4504,-12
COC(=O)c1ccccc1NC(=O)C(C)NS(=O)(=O)c1ccc(OC)cc1 (stereo unspecified),/,/,7.3,7,-12,3967,-11
CCOC(=O)c1cc(-c2ccccc2)n(CCC(=O)N2CCN(c3ccccc3OC)CC2)c1C,11,4,9.1,-2,-11,2360,9
CCN(CC)S(=O)(=O)c1ccc(S(=O)(=O)Nc2ccc3c(c2)oc2ccccc23)cc1,12,4,-18,90,-15,20070*,-10
Cc1ccc(S(=O)(=O)N(C)CC(=O)NCC(c2ccco2)N(C)C)cc1 (stereo unspecified),11,9,-1.7,1,-16,8695,/
Cc1ccccc1Cn1c(C)nc2ccccc21,5,3,4.4,5,-23,3331,-4
COc1ccc(C2C=CCN(S(=O)(=O)C=Cc3ccccc3)C(Cc3ccccc3)C(=O)N2Cc2ccc(F)cc2)cc1 (stereo unspecified),2,5,7.1,-3,/,/,/
CCCn1nc(NC(=O)C2CCCO2)c2cc3cccc(C)c3nc21 (stereo unspecified),-7,12,2.5,4,-13,4298,9
COc1ccc(CC(C)NCCC(c2ccccc2)c2ccccc2)cc1 (stereo unspecified),7,15,-9.2,-14,1,3992,1
O=C(C(Cl)Cl)N1CC2CCC(CC2)C1,6,8,3.2,2,0,3518,/

# Arranged by formula weight (descending): some entries from above.
SMILES,Mtb hypoxia rep,Mtb hypoxia rep growth,Sa RN4220 lethal,ugtP null kill,PrP 5UTR inh,Bead autofluor,BJeLR viability
CCN(CC)S(=O)(=O)c1ccc(S(=O)(=O)Nc2ccc3c(c2)oc2ccccc23)cc1,12,4,-18,90,-15,20070*,-10
Cc1ccc(S(=O)(=O)N(C)CC(=O)NCC(c2ccco2)N(C)C)cc1 (stereo unspecified),11,9,-1.7,1,-16,8695,/
Cc1ccc(S(=O)(=O)NCCCOC(=O)Nc2ccncc2)cc1,8,1,1.0,1,-16,3387,0
CCCn1nc(NC(=O)C2CCCO2)c2cc3cccc(C)c3nc21 (stereo unspecified),-7,12,2.5,4,-13,4298,9
Cc1ccccc1Cn1c(C)nc2ccccc21,5,3,4.4,5,-23,3331,-4

# New compounds follow:
SMILES,Mtb hypoxia rep,Mtb hypoxia rep growth,Sa RN4220 lethal,ugtP null kill,PrP 5UTR inh,Bead autofluor,BJeLR viability
COc1ccc(N2CC(C(=O)N[C@@H](CC(C)C)C(=O)NC3CCCCC3)CC2=O)cc1 (stereo partly specified),1,9,-0.1,3,-4,5197,-3
CN1CCN(C(=O)/C(=C/c2ccc(F)cc2)NC(=O)c2ccccc2)CC1,-2,2,3.5,7,-14,4070,0
O=C(Nc1ccc(Cl)cc1N1CCOCC1)C1CCCO1 (stereo unspecified),7,6,4.9,2,-8,5954,-7
O=C(CN1CCN(c2ccccn2)CC1)NC1CCCCC1,/,/,2.6,5,-13,5140,3
CCCCOC(=O)CCn1c(=S)oc2ccccc21,1,-15,3.2,6,-7,2517,2
O=C(CSc1ccccc1)N1CCN(C(=O)c2ccco2)CC1,6,15,-2.9,12,-3,4077,1
O=C(Nc1nc(-c2ccc(S(=O)(=O)N3CCCCCC3)cc2)cs1)c1cccs1,5,8,4.2,-5,-7,3466,-5
O=C(Nn1cnnc1)c1ccc(Cl)c([N+](=O)[O-])c1,9,2,1.5,7,-28,/,-5
COc1ccc(CN2CCN(C3CCOCC3)CC2CCO)c(C)c1C (stereo unspecified),10,17,3.9,3,-14,4318,6
CN1CCN(CCCNC(=O)c2ccc(/C=C3\Sc4ccccc4N(Cc4ccc(F)cc4)C3=O)cc2)CC1,-7,2,-1.7,12,0,4736,-4
CCOC(=O)C1NC(=O)CC1c1ccccc1 (stereo unspecified),-4,-5,-5.1,-7,-19,4148,-1
Cc1ccc(CSCC(=O)N(C)CC(=O)Nc2ccc(C)cc2)cc1,5,10,0.0,4,-31,?,-3
O=C1[C@H]2[C@@H](c3ccc(Cl)cc3)N3C(=O)N(c4cccc(Cl)c4)C(=O)[C@@]3(Cc3ccc(Cl)cc3)[C@H]2C(=O)N1C1CCCCC1,/,/,/,/,-4,3472,-12
COc1ccccc1N(CCC#N)C(=O)CSc1ccc2c(c1)OCCO2,-1,16,0.6,11,-12,13123,2
O=C(Nc1ccccc1)NN1CC(=O)N(c2ccc(Cl)cc2)CC1=O,17,6,1.6,5,-24,5813,6
Cc1ccc(S(=O)(=O)c2nc(-c3ccccc3F)oc2N2CC(C)OC(C)C2)cc1 (stereo unspecified),2,-2,0.3,5,-5,5729,0
CCn1c(COc2ccc(C)cc2)nc2ccccc21,12,2,7.5,2,-55,3140,-24
CC(CC(=O)Nc1ccc(N(C)C)cc1)=NNC(=O)c1cnccn1,7,3,7.8,5,/,/,/
Cc1ccc(S(=O)(=O)Oc2ccc(C=NNC(=O)c3nn(C)cc3Cl)cc2)cc1,4,0,1.5,12,/,/,/
O=C(O)c1cccc(N2C(=O)/C(=C/c3ccc(SCc4ccc(Cl)cc4)o3)SC2=S)c1,15,9,12,27,-26,4497,/
C=CCn1c(CSc2nnc(-c3ccccc3)n2C)n[nH]c1=S,13,3,3.7,3,-33,5462,-7
CCn1c(C)[n+](CCCS(=O)(=O)[O-])c2cc(Cl)c(Cl)cc21,-6,6,0.9,0,-15,3944,1
C=CCc1cccc(C=NNC(=O)CCC(=O)Nc2ccc(F)cc2)c1O,9,7,-4.4,0,/,/,/
COc1ccc(C(=O)NCCOc2cccc(Oc3ccccc3)c2)cc1OC,8,6,0.5,0,-18,3632,/
COc1ccc(O)c(C=NNC(=O)c2cc(=O)[nH]c3ccccc23)c1,1,-9,-2.9,4,/,/,/
